# MARV entry inh: blocks Marburg virus binding to or entry into cells. Marburg virus pseudotyped entry inhibition, cell reporter; control for the full effect not named in the record; about a third of the inactives were read at about 46 µM. Potency, µM (titrated, usually from 37.8 µM), inactives show at the highest dose activity change, negative = inhibition, usual class: inhibitors. 300,000 compounds, 1.8% hits; active = well fitted inhibition curve with a large enough effect; inconclusive = small, poorly fitted or top-dose-only effect, or effect the other way; inactive = flat fitted curve, though single readings scatter; tested in HEK293 cells; about a fifth of its hits are not listed in these tables; also: % is scaled to controls: 0 for no effect and ±100 for the full control effect; luciferase read-out
# RE007 growth inh: less growth of the S. pombe RE007 Vpr strain; S. pombe RE007 Vpr strain, BacTiter-Glo ATP luminescence, 24 h; control for the full effect not named in the record; Potency, µM (highest dose often 92.2 µM), for inactives: top-dose activity change, negative = less growth; 360,000 compounds, 0.21% hits; AID 651644; active = well fitted falling curve with a large enough effect; inconclusive = small, poorly fitted or top-dose-only effect; inactive = no such curve, though single readings can be large or run the other way;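 also: % is scaled to controls: 0 for no effect and ±100 for the full control effect; nearly all actives have a fitted effect of over 50% in size; the assay follows cell death caused by Vpr and the record does not say whether a fall means rescue or toxicity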
#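 Fission yeast strain RE007, carrying one chromosomally integrated HIV-1 vpr copy, was seeded at OD 0.01 in PMG+AL medium with 23 nL pinned compound. After 24 h at 30 °C and 99% humidity, viability was read by BacTiter-Glo luminescence.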
# Lassa entry inh: blocks Lassa virus binding to or entry into cells; Lassa virus pseudotype entry inhibition, cell reporter; control for the full effect not named in the record; Potency, µM (titrated, usually from 37.9 µM), inactives show top-dose activity change, negative = inhibition, hits mostly inhibitors; 300,000 compounds, 1.2% hits; active means well fitted inhibition curve with a large enough effect; inconclusive means small, poorly fitted or top-dose-only effect, or effect the other way; inactive means flat fitted curve, though single readings scatter; tested in HEK293 cells; also: % is scaled to controls: 0 for no effect and ±100 for the full control effect; nearly all actives have a fitted effect of over 50% in size; luciferase read-out
# Cruzain inh noDet: cruzain (T. cruzi) inhibition without detergent; AID 1476; 200,000 compounds, 2.3% hits; purified cruzain, Z-FR-AMC fluorescence, no detergent; Potency, µM, for the others: max response, negative = inhibition, actives largely listed as inhibitors;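 also: plate controls were enzyme without inhibitor for no effect and buffer without enzyme for full effect; nearly all actives have a fitted effect of over 40% in size; top concentration of the series not given in the record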
# Target sequence (P25779 123-467 limits assumed): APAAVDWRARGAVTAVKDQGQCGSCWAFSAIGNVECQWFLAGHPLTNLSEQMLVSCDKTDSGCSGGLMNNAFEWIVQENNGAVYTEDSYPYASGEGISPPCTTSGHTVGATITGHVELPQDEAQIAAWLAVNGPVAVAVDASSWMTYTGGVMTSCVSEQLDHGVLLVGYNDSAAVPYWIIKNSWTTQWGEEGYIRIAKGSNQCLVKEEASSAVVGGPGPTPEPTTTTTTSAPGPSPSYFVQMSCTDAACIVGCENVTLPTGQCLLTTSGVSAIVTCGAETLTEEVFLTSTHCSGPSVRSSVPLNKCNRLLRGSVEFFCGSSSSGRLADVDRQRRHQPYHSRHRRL
#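 Purified cruzain at 1.5 nM, pre-incubated 15 min with compound at room temperature in 100 mM sodium acetate pH 5.5, 5 mM DTT, 0.00005% Triton X-100. Reaction started with 2 uM Z-FR-AMC; AMC fluorescence increase over 60 s gives rate.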
# 2A StopGo: lowers the luciferase signal of an FMDV 2A StopGo reporter | human cells with a luciferase reporter of 2A StopGo recoding; control for the full effect not named in the record | Potency, µM (series often up to 57.9 µM), inactives show at the top dose signal change, negative = less light | 410,000 compounds, 1.2% hits; active = well fitted falling curve with a large enough effect; inconclusive = small, poorly fitted or top-dose-only effect; inactive = no such curve, though single readings can be large or run the other way; tested in HEK293T cells; also: % is scaled to controls: 0 for no effect and ±100 for the full control effect; nearly all actives have a fitted effect of over 45% in size; luciferase light after 4 h
# SARS PLpro yeast: blocks SARS-CoV papain-like protease in a yeast assay | AID 485353 | Potency, µM (highest dose often 32.9 µM), for inactives: at the highest dose activity, positive = growth rescue | 330,000 compounds, 0.19% hits | S. cerevisiae expressing SARS-CoV PLpro, growth rescue; control for the full effect not named in the record; active means well fitted rising curve with a large enough effect; inconclusive means small, poorly fitted or top-dose-only effect; inactive means no such curve, though single readings can be large or run the other way; also: 0% is about no effect; nearly all actives have a fitted effect of over 55% in size; growth read by luminescence after 48 h
# NS1 function inh: influenza NS1 inhibition. S. cerevisiae slowed by influenza A NS1, growth recovery by OD600. Potency, µM (top dose mostly 46.1 µM), inactives show top-dose activity, positive = more growth. 270,000 compounds, 0.4% hits; active means well fitted rising curve with a large enough effect; inconclusive means small, poorly fitted or top-dose-only effect; inactive means no such curve, though single readings can be large or run the other way; also: nearly all actives have a fitted effect of over 50% in size
#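 Growth recovery, yeast-based: influenza A NS1 expressed in S. cerevisiae causes slow growth, and suppressors are detected by OD600. The parent strain without NS1 is used as positive control.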
# Cruzain inh Det: cruzain (T. cruzi) inhibition with detergent | 200,000 compounds, 0.43% hits | P25779 | Potency, µM, without a hit: max response, negative = inhibition, hits mostly inhibitors | purified cruzain, Z-FR-AMC fluorescence, 0.01% Triton;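 also: plate controls were neutral wells for no effect and buffer without enzyme for full effect; nearly all actives have a fitted effect of over 40% in size; top concentration of the series not given in the record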
#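 15 min RT preincubation of 1.5 nM cruzain with compound, then 2 uM Z-FR-AMC added; kinetic AMC fluorescence, 60 s delta. Triton X-100 0.01%, pH 5.5.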
# * marks the source's active call; other numbers are inactive results; ? = inconclusive; / = not tested or not shown; & = joins results of further samples; [ ] = dose if it differs, or a comment. Unless noted, calls follow the shape of the dose curve; as a rule, active = well fitted curve in the direction sought with a large enough effect; inconclusive = small, poorly fitted or top-dose-only effect, or another doubt; inactive = no such curve, though single readings can be large; an effect the other way counts as inactive or inconclusive. Potency is read from the fitted curve at half-maximal effect.
SMILES,MARV entry inh,RE007 growth inh,Lassa entry inh,Cruzain inh noDet,2A StopGo,SARS PLpro yeast,NS1 function inh,Cruzain inh Det
Fc1ccc(CNC(=S)NC2CCCC2)cc1,?,14%,?,3%,-2%,?,-19%,-3.2%
CCOc1ccc(S(=O)(=O)N(CC(=O)Nc2cccnc2)c2ccc(F)cc2)cc1,?,-13%,-23%,/,-23%,-7%,-1%,/
COC(=O)c1ccc(NC(=O)COC(=O)CSc2nc(C)cc(C)n2)cc1,9%,1%,?,7%,/,0%,0%,-5.1%
N[C@@H]1CCN(O)C1=O,1%,/,/,-3%,-7%,/,/,-2.2%
CCOc1cccc2cc(C(=O)NCCC3=CCCCC3)c(=O)oc12,21%[46.1 µM],4%,-6%,/,33%[activator],-1%,5%,/
Cc1cc(C)cc(NC(=O)C(OC(=O)Cn2cnc3c2c(=O)n(C)c(=O)n3C)c2ccccc2)c1 (configuration not stated),-21%,-6%,?,/,37%[activator],3%,/,/
Cc1sc2ncnc(SCC(=O)NCC(C)C)c2c1C,-9%,-9%,-18%,-5%,-16%,-7%,-19%,-11%
CCN(CC)CCNC(=S)Nc1ccc(Cl)cc1,?,14%,8%,-9%,5%,-3%,2%,-2.9%
CCOC(=O)CC(C)(C)/C(C)=N/Nc1ccc([N+](=O)[O-])cc1[N+](=O)[O-],?,33%,?,-9%,?,0%,-8%,-14%
O=C(Nc1ccc(N2CCOCC2)cc1)c1ccncc1,18%,-5%,4%,-11%,20%,1%,0%,-1.6%
CC1=NNC(=O)C(CC(=O)Nc2ccc(Cl)c(Cl)c2)C1 (configuration not stated),18%,-4%,11%,2%,4%,2%,0%,-2.6%
CN1CCCN(C(=O)COc2ccccc2)CC1,/,0%,/,/,-11%,3%,13%,/
COc1cc(CN2CCNC(=O)C2CC(=O)NCCC2=CCCCC2)cc(OC)c1 (configuration not stated),?,0%,5%[46.1 µM],/,13%,0%,2%,/
COc1ccc(C(=O)NC2CCc3ccccc32)cc1OC1CCN(C(C)C)CC1 (configuration not stated),-6%,-14%,3%,/,0%,-3%,-1%,/
C[n+]1c(-c2ccccc2)sc2ccccc21,/,-21%,/,/,-2%,-5%,-50%,/
CC1CCCC(NC(=O)CSC2CCCCC2)C1C (configuration not stated),?,3%,-3%,/,10%,1%,1%,/
O=C(Nc1ccccc1F)c1ccc(OCc2ccccc2)cc1,-2%,24%,?,-3%,27%,-8%,4%,-3.2%
CCOc1ccc(NC(=O)N2CC=C(c3c[nH]c4ccccc34)CC2)cc1,/,/,-26%[46.1 µM],8%,-19%,/,/,-11%
CC1CCCC(NC(=O)CSc2ccc(F)cc2)C1C (configuration not stated),9%,4%,?,/,10%,5%,/,/
CCCCNC(=O)CSc1nc2cc3c(cc2c(=O)n1CCCCCC(=O)NCc1ccc2c(c1)OCO2)OCO3,/,/,14%[46.1 µM],12%,2%,/,/,1.7%
NNC(=O)CCCNc1ncc(C(F)(F)F)cc1Cl,?,2%,8%[46.1 µM],/,-8%,-1%,/,/
CCOc1ccc(N2CC(C(=O)Nc3ccccc3OC)CC2=O)cc1 (configuration not stated),/,-5%,/,12%,25%,6%,1%,-2.0%
CN(c1ccccc1)S(=O)(=O)c1cccc(NC(=O)Cn2cnc3c2c(=O)n(C)c(=O)n3C)c1,?,-1%,?,4%,?,-2%,1%,-0.8%
COc1ccccc1OCCNC(=O)c1ccc(C)o1,8%[46.1 µM],3%,?,/,14%,3%,/,/
CCOc1ccc(N=c2scc(-c3ccccc3)n2CCO)cc1,?,-1%,-15%,-1%,/,-10%,-47%,4.9%
Cc1ccc(C(=O)NCC(=O)Nc2ccc(F)c(F)c2F)cc1,/,-2%,/,/,6%,0%,0%,/
CCCOC1CCCN(C(=O)c2cc(Cl)c(Cl)cc2C(=O)O)C1 (configuration not stated),0%,8%,5%,0%,-14%,8%,11%,-1.2%
CC(C)N=C(NC#N)SCc1ccc(F)cc1,2%,-9%,-19%[14.3 µM],9%,-1%,-30%,-96%,3.2%
Cc1ccc(S(=O)(=O)N2CCN(C(=O)COC(=O)c3ccc(O)cc3)CC2)c(C)c1,?,8%,13%,/,-21%,-3%,/,/
CC(C)(C)c1ccccc1OCCCCCNCCO,?,2%,?,2%,-23%,-11%,-8%,-1.6%

# Exported with two lines to a compound: entries from further up
# Under each structure – MARV entry inh, RE007 growth inh, Lassa entry inh, Cruzain inh noDet, 2A StopGo, SARS PLpro yeast, NS1 function inh, Cruzain inh Det
> NNC(=O)CCCNc1ncc(C(F)(F)F)cc1Cl
 : ?, 2%, 8%[46.1 µM], /, -8%, -1%, /, /
> CCOc1ccc(N2CC(C(=O)Nc3ccccc3OC)CC2=O)cc1 (configuration not stated)
 : /, -5%, /, 12%, 25%, 6%, 1%, -2.0%

# Other structures.
SMILES,MARV entry inh,RE007 growth inh,Lassa entry inh,Cruzain inh noDet,2A StopGo,SARS PLpro yeast,NS1 function inh,Cruzain inh Det
Cc1ccc(S(=O)(=O)N2CCOCC2)cc1C(=O)Nc1nc(-c2cccnc2)cs1,6%,1%,0%,20%,/,-4%,-12%,-5.2%
CC(C)CC(C(=O)Nc1cccc(O)c1)N1C(=O)c2ccccc2C1=O (configuration not stated),/,24%,/,/,-8%,9%,?,/
Cc1nnc(N2CCC(C(=O)N3CCCCC3)CC2)c2nn(-c3ccc(Cl)cc3)c(C)c12,/,7%,-9%[46.1 µM],4%,-27%&-21%,24%,2%,-2.0%
COc1ccc(CNc2nc3c(-c4cccc(C)c4)nnn3c3ccccc23)cc1,15%[46.1 µM],/,9%[46.1 µM],-17%,-6%,/,/,-0.2%
COC(=O)c1ccccc1NC(=O)CN1C(=O)c2ccccc2S1(=O)=O,-1%,2%,18%,-2%,/,-3%,17%[9.22 µM],1.4%
COc1cc(/C=N\NC(=O)c2ccc(-c3ccccc3)cc2)cc(OC)c1O,-7%[46.1 µM],-10%,-10%[46.1 µM],/,-10%,-2%,20%,/
CCCOc1ccc(CC(=O)NCC2(c3ccccc3)CCOCC2)cc1OC,-20%,-1%,-17%,8%,-19%,-2%,0%,5.6%
CCc1cccc(C)c1NC(=S)N(CCN(C)C)Cc1cccs1,?,-19%,-15%,/,-3%,1%,/,/
Cc1ccccc1C(=O)Nc1scc(-c2ccc(Br)cc2)c1C(=O)O,?,16%,?,/,-6%,/,/,/
COc1cccc(CNC(=O)CN(c2cc(C)cc(C)c2)S(=O)(=O)c2c(C)noc2C)c1,-2%,10%,/,17%,-24%,-3%,-64%,-1.2%
Cc1ccccc1-c1nc2scc(CCNC(=O)C(=O)Nc3ccc(F)cc3F)n2n1,/,/,-11%[46.1 µM],19%,-9%,/,/,-6.7%
Cc1ccc(-c2noc(CNC(=O)c3ccc(C(C)(C)C)cc3)n2)cc1,8%[46.1 µM],/,-5%[46.1 µM],-12%,-1%,/,/,-11%
CCN(CC)S(=O)(=O)c1ccc2c(c1)c(=O)c(C(=O)NCc1ccccc1Cl)cn2C,?,/,-25%[46.1 µM],-8%,-12%,/,/,0.5%
COc1cccc(CN2CC(C(=O)NCCn3ccc(C)n3)CCC2=O)c1 (configuration not stated),/,6%,/,/,-22%,3%,-4%,/
CCOc1cccc(-c2nnc3sc(-c4ccco4)nn23)c1,-10%,5%,-5%,?,0%,-5%,-16%,-7.1%
COc1ccc(-n2nc(C(=O)N3CCN(c4cccc(C)c4)C(C)C3)c3c4ccccc4n(C)c3c2=O)cc1 (configuration not stated),3%[46.1 µM],/,-13%[46.1 µM],0%,0%,/,/,-3.0%
CC(C)(C)OC(=O)NCCc1nnc(SCc2ccccc2)o1,/,-17%,/,/,-6%,0%,-1%,/
O=C(NC1CCCCC1)c1cc(S(=O)(=O)N2CCOCC2)ccc1Cl,7%[46.1 µM],-6%,7%,/,-12%,-1%,1%,/
COc1cccc(NC(=O)CN(C)C(=O)COc2cc(C)ccc2Cl)c1,-23%[46.1 µM],-11%,26%,/,-12%,-4%,/,/
COc1ccc(COC(=O)N/N=C(\C)CC(=O)Nc2c(C)cc(C)cc2C)cc1,12%[46.1 µM],0%,7.3µM*,4%,-6%,3%,7%,5.3%

# Entries listed so far with a thiophene ring, fused or not (three):
SMILES,MARV entry inh,RE007 growth inh,Lassa entry inh,Cruzain inh noDet,2A StopGo,SARS PLpro yeast,NS1 function inh,Cruzain inh Det
Cc1sc2ncnc(SCC(=O)NCC(C)C)c2c1C,-9%,-9%,-18%,-5%,-16%,-7%,-19%,-11%
CCc1cccc(C)c1NC(=S)N(CCN(C)C)Cc1cccs1,?,-19%,-15%,/,-3%,1%,/,/
Cc1ccccc1C(=O)Nc1scc(-c2ccc(Br)cc2)c1C(=O)O,?,16%,?,/,-6%,/,/,/

# Next results follow:
SMILES,MARV entry inh,RE007 growth inh,Lassa entry inh,Cruzain inh noDet,2A StopGo,SARS PLpro yeast,NS1 function inh,Cruzain inh Det
Cc1ccc(CNC(=O)c2ccc3c(c2)NC(=O)CS3)cc1,/,-5%,/,/,13%,3%,8%,/
C/C(=N\NC(=O)c1ccc(OC2CCCC2)cc1)c1ccc(C)s1,-14%[46.1 µM],-21%,?,?,-17%,-4%,-4%,0.6%
COc1ccc(NC(=O)CSc2nnnn2Cc2ccccc2)cc1,14%,-7%,6%,/,8%,1%,2%,/
Cc1ccc(NC(=O)c2cnn3c(C(F)F)cc(-c4ccccc4)nc23)cc1F,?,/,15%[46.1 µM],0%,?,/,/,-2.6%
Cc1ccc(CC2C(=O)N(c3ccc(C)cc3)C(=O)C2C)cc1 (configuration not stated),21%[46.1 µM],1%,26%[46.1 µM],/,26%,0%,/,/
CCOc1ccccc1/C=N/Nc1cc(C)nc2ccc(C)cc12,20%,-7%,?,/,0%,-1%,-25%,/
CSc1nc2nc(-c3ccccc3)cc(C(F)(F)F)n2n1,6%,-7%,-1%,2%,-22%,-3%,-2%,-6.8%
Cc1c(OCC(=O)NCCCN2CCOCC2)ccc2c(-c3ccccc3)cc(=O)oc12,/,5%,/,/,-12%,13%,11%,/

# Compound activity from PubChem BioAssay.
